Screens deposited in PubChem BioAssay by ICCB-Longwood Screening Facility, Harvard Medical School.
MgrA DNA FP = S. aureus MgrA-DNA binding modulation; fluorescence polarization; inhibition, %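 (about 10 µg/mL by stock and volumes)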; actives 0.13% (n = 84,000); AID 602314;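 active means above 50% in either of two replicates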;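 further: 0% = protein plus DNA without compound and 100% = DNA alone without protein; higher means less MgrA bound to DNA so lower polarization; one replicate is shown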
S aureus helic = blocks Staphylococcus aureus DNA helicase; purified S. aureus helicase, fluorescence unwinding assay; about half of the hits fall short of the stated cut; inhibition, %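 (tested at about 80 µM)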; actives 0.05% (n = 120,000); AID 485395;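 active means both duplicates at 50% or more, or one of them with a favoured structure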;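 further: 0% = mean of negative control wells and 100% = mean of positive control wells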
Active calls of the source: *; x = no result given; & = joins results of further samples.

Every second line gives: MgrA DNA FP	S aureus helic
> CCOC(=O)c1sc2nc(NC(=O)C(C)(C)C)sc2c1C
 : x	-6.0
> CCOc1ccc(Oc2nc(NCC(C)C)nc(OC)n2)nn1
 : -0.2	6.0
> CSc1nccc(-c2ccc(S(=O)(=O)Nc3cc(C(F)(F)F)cc(C(F)(F)F)c3)s2)n1
 : -4.6	x
> Cc1noc(C)c1COC(=O)C1=NNC(=O)CC1
 : x	-14.0
> CCSc1nc2cc(C(=O)OC)ccc2c(=O)n1CC
 : x	6.0
> CC(C)c1nc(C#N)c(NCCCn2ccnc2)o1
 : x	11.0
> O=C(Nc1ccccc1)Nc1ccccc1Br
 : 3.7	-19.0
> CSc1ccccc1NC(=O)CC(=O)Nc1ccccc1SC
 : 0.3	2.0
> CC(C)(C)Nc1ncnc2c1cnn2Cc1ccccc1
 : 3.7	14.0
> O=C(O)c1cc2cc(Cl)cc(Br)c2oc1=O
 : x	15.0
> COc1ccc(Cl)cc1S(=O)(=O)N1CCCCC1C (stereo not drawn)
 : x	-11.0
> CN1CCN(C=Nc2nc3ccccc3nc2N2CCCC2)CC1
 : x	14.0
> N#CC1C(=O)NC(c2ccccc2)C=C1c1ccccc1 (stereo not drawn)
 : 2.2	5.0
> O=C(O)C12CC3CC(C1)CC(c1ccccc1)(C3)C2
 : -0.2	-3.0
> Clc1ccccc1OCCn1cc(/C=N/n2cnnc2)c2ccccc21
 : 1.9	8.0
> CC(=O)n1cc(-c2nsc(Nc3ccccc3)n2)c(C)n1
 : 0.4	x
> Cc1nc2cc(-c3ccccc3)nn2c(C)c1CCC(=O)NC(C)C
 : x	4.0
> COCCNC(=O)Cn1nc(C(F)(F)F)cc1C
 : -0.9	11.0
> O=C(OCC(=O)N1CCCCCC1)c1n[nH]c(=O)c2ccccc12
 : x	10.0
> O=C(O)c1ccccc1C(=O)Nc1ccc(-c2ccccc2)cc1
 : 1.1	x
> COc1ccc(CN2CC(C(=O)O)CC2=O)cc1 (stereo not drawn)
 : -4.7	1.0
> CN1CCCN(C(=O)c2cnccn2)c2nc3ccccc3nc21
 : x	-4.0
> COC(=O)CN1C(=O)COc2cc(S(=O)(=O)NCc3ccc(Cl)cc3)ccc21
 : 0.7	-4.0
> CSc1ccc(S(=O)(=O)N(C)C)cc1
 : -0.9	0.0
> CC1=CC(=C(C#N)C#N)C=C(C)N1Cc1ccncc1
 : x	5.0
> CCn1c(-c2ccccc2)c(C2=NNC(=NC(C)COC)SC2)c2ccccc21 (stereo not drawn)
 : x	-8.0
> O=C(O)c1cnn2c1ncc1c3ccccc3ccc12
 : 0.9	-5.0
> COC(=O)c1ccc2c(=O)n3c(nc2c1)SC1CS(=O)(=O)CC13 (stereo not drawn)
 : x	15.0
> Cc1nn(Cc2ccc(C(=O)n3cc(Cl)cn3)o2)c(C)c1Cl
 : -0.3	12.0
> CCc1ccccc1NC(=S)Nc1ccc(Oc2ccc(Cl)cc2)cc1
 : 0.1	x
> COc1ccc(C2OC(=O)CC2C(=O)NCCc2ccccc2)cc1OC (stereo not drawn)
 : x	10.0
> c1ccc2[nH]c(C3CCCCC3)nc2c1
 : 0.0	-2.0
> CC(C)(CC(=O)Nc1cccnc1)Sc1ccc(Cl)cc1
 : -1.2	x
> Cc1cc(Br)ccc1NC(=O)CN(C)C(=O)C1=COCCO1
 : x	1.0
> CC(=O)N1N=C(COc2ccc(Cl)cc2Cl)OC1c1ccco1 (stereo not drawn)
 : x	4.0
> CCn1cc(C(=O)NC2CCCCCC2)c(=O)c2cc(F)c(N3CCN(C(C)=O)CC3)cc21
 : x	-12.0
> O=C(O)CC1=C(c2cccs2)CCC1=O
 : -1.6	3.0
> COc1ccc(-c2nc(CNS(=O)(=O)N(C)C)cs2)cc1
 : 4.2	12.0
> CN(C)C(=S)c1ccc2ccccc2n1
 : 0.7	7.0
> CCOC(=O)c1c(C)oc2c1c(CN1CCN(C)CC1)c(O)c1ccccc12
 : x	20.0
> CCSCC1COC(c2cccn2Cc2ccc(F)cc2)=N1 (stereo not drawn)
 : -0.6	13.0
> Cc1ccc(C2CC(=O)NC(SCC(=O)Nc3ccc(Br)cc3)=C2C#N)s1 (stereo not drawn)
 : -0.3	x
> CC(C)N(C(=O)Nc1ccccc1F)c1ccccc1
 : -0.7	4.0
> Cc1onc(-c2c(Cl)cccc2Cl)c1C(=O)N=S(C)(C)=O
 : 0.7	x
> Cc1ccc2nc(SC(C)C(=O)Nc3ccc(C#N)cc3)[nH]c2c1 (stereo not drawn)
 : x	13.0
> CC(C)CC(C(=O)O)n1c(O)c(C2=c3ccccc3=NC2=O)sc1=S (stereo not drawn)
 : 0.5	6.0
> COc1ccc(NC(=O)Cc2c[nH]c3ccccc23)cc1
 : 4.2	11.0
> O=C(CSc1ccccc1F)Nc1nc(-c2cccs2)cs1
 : x	5.0
> CCC(C)N(CN1C(=S)SC2=NC(=O)CCCN21)C(C)CC (stereo not drawn)
 : x	11.0
> CNC(=O)c1ccc2c(c1)OCCO2
 : x	-8.0
> FC(F)(F)c1ccncc1-c1nc(-c2ccc(Cl)cc2)cs1
 : 0.2	x
> Cc1ccc(CN2CCc3ccccc3C2)o1
 : -4.8	3.0
> CSc1ccccc1NCN1C(=O)c2ccccc2C1=O
 : 0.2	x
> CCCCn1c(-c2ccccc2)nn(S(=O)(=O)c2ccc(Br)cc2)c1=O
 : -2.3	12.0
> COc1cc(-c2nnc(COC(=O)C3=NN(c4cc(C)ccc4C)C(=O)CC3)o2)cc(OC)c1OC
 : x	-6.0
> CCOC(=O)n1ccn(C)c1=S
 : -1.1&2.8	x
> CCC(CO)NCC(=O)Nc1ccc(C)cc1F (stereo not drawn)
 : x	2.0
> CC(C)NC(=S)N1CCN(Cc2ccc3c(c2)OCO3)CC1
 : x	-1.0
> O=C(CSc1ccccc1)Nc1nnc(C2CC2)s1
 : x	-8.0
> Cc1cc(C)c2c(N)c(-c3nnc(SCc4ccc(Cl)cc4)n3C)sc2n1
 : -2.0	x

The results go on:
Every second line gives: MgrA DNA FP	S aureus helic
> Nc1ncnc2c1nc(Br)n2C1O[C@H]2COP(=O)(O)O[C@@H]2[C@@H]1O (stereo partly drawn)
 : 0.2	x
> CC(C(=O)Nc1ccccn1)N1C(=O)C2C3C=CC(C3)C2C1=O (stereo not drawn)
 : x	5.0
> Cc1[nH]c(=O)[nH]c(=O)c1S(=O)(=O)NCc1cccnc1
 : x	3.0
> CC(=O)NC1C(=O)N=C(SCC(=O)NC(C)c2ccccc2)NC1=O (stereo not drawn)
 : -0.8	8.0
> COC(=O)Cc1csc(=Nc2ccccc2)n1-c1ccccc1
 : x	24.0
> COc1ccc(Br)cc1C1SCCN1C(=O)c1cc2ccccc2oc1=O (stereo not drawn)
 : -1.3	x
> Cn1cccc1C(C(=O)NC1CCCCC1)N(C(=O)Cn1nnc2ccccc21)c1cnc2ccccc2c1 (stereo not drawn)
 : 3.8	-4.0
> CCn1c(SCc2nc3ccccc3c(=O)[nH]2)nnc1-c1ccccc1F
 : 0.3	-2.0
> CSc1ccc(C2NC(=O)c3ccccc3N2)cc1 (stereo not drawn)
 : 1.6	-7.0
> Cc1csc(N(C(=O)Cc2csc(-c3ccccc3)n2)c2ccccc2)n1
 : x	-8.0
> COc1ccc(CCNc2nnc(Cc3ccc(Cl)cc3)c(=O)[nH]2)cc1OC
 : x	6.0
> CCn1c(C(=O)O)c(CNCc2ccc3c(c2)OCO3)c2ccccc21
 : x	-38.0
> CC(Cc1ccco1)NC(=O)Cn1c(=O)oc2ccccc21 (stereo not drawn)
 : x	-22.0
> Cc1ccc(Cn2cc(C(=O)Nc3cccnc3)ccc2=O)cc1
 : x	-2.0
> COc1ccc(C(=O)N2c3cc(C)ccc3C(Nc3ccc(C)cc3)CC2C)cc1 (stereo not drawn)
 : -0.7	x
> O=C(Oc1cccc2cccnc12)C1CCCCC1
 : -0.6	6.0
> Cc1cc2n(n1)CCCN2CC(=O)Nc1cccc(Cl)c1C
 : x	-17.0
> O=C(c1ccc(NS(=O)C23CC4CC(CC(C4)C2)C3)cc1)N1CCCC1 (stereo not drawn)
 : -1.6	-9.0
> CCc1ccccc1NC(=O)c1ccc2snnc2c1
 : -0.6	5.0
> COc1ccc(-n2nc3c(c2NC(=O)/C=C\c2ccc4c(c2)OCO4)CS(=O)(=O)C3)cc1
 : 4.2	15.0
> O=C1CSC(c2cccnc2)N1c1ccc(C(F)(F)F)cc1 (stereo not drawn)
 : -1.3	x
> c1ccn(-c2ccc(-c3ccc(-n4cccc4)cc3)cc2)c1
 : 1.6	-4.0
> CC(C)C(C(=O)OCC(=O)c1ccc(Br)cc1)N1C(=O)C2C3C=CC(C3)C2C1=O (stereo not drawn)
 : -2.3	x
> Nc1ccc(-c2ccc(CO)o2)cc1
 : x	5.0
> CCC1CCCCN1C(=O)COc1cccc2c1CCN(C)C2=O (stereo not drawn)
 : x	13.0
> CCc1ccc(NC(=O)CSc2ccc(-c3ccco3)nn2)cc1
 : 1.2	-3.0
> c1ccc(-c2noc(CN3CCCC3c3cccs3)n2)cc1 (stereo not drawn)
 : x	-6.0
> Cc1cc(C(=O)OCC(=O)N2c3ccccc3Sc3ccccc32)c2ccccc2n1
 : -0.7	5.0
> CCOC(=O)N1CCN(C(=O)c2ccc3c(c2)N(Cc2ccccc2)C(=O)c2ccccc2S3=O)CC1 (stereo not drawn)
 : x	19.0
> O=S(=O)(c1cccc2cccnc12)N1CCCN(Cc2c(F)cccc2Cl)CC1
 : -2.8	x

Full records, looked up by structure:
CCn1c(SCc2nc3ccccc3c(=O)[nH]2)nnc1-c1ccccc1F is entered as MgrA DNA FP = 0.3; S aureus helic = -2.0
COc1ccc(Br)cc1C1SCCN1C(=O)c1cc2ccccc2oc1=O (stereo not drawn) is entered as MgrA DNA FP = -1.3; S aureus helic = x

Next section.
Every second line gives: MgrA DNA FP	S aureus helic
> CCn1c(O)c(/C=c2/c(C)c(C#N)c3nc4ccccc4n3c2=O)n(CC)c1=S
 : 21.8	-98.0
> c1ccc(C2C3=C(CCCC3)Nc3ncnn32)cc1 (stereo not drawn)
 : 1.3	-3.0
> Fc1ccccc1CNc1ncnc2c1oc1ccccc12
 : x	-3.0
> CC(C)(C)OC(=O)C(C)(C)Sc1ccc(C(F)(F)F)cn1
 : 0.6	x
> CN(C)c1nc(SCCOC(=O)COc2ccc(Cl)cc2Cl)nc(N(C)C)n1
 : 0.4	-3.0
> O=C(Oc1ccccc1)c1csc(-c2cccnc2)n1
 : -3.2	x
> O=C(NCCc1ccccc1)c1nnc(Cc2ccc(F)cc2)o1
 : 0.1	10.0
> COC(=O)C1=C(NC(=O)c2ccc(S(=O)(=O)N3CCOCC3)cc2)CCS1
 : 2.0	7.0
> Cc1noc(C)c1-c1nc(COc2ccc(/C=C(/C#N)S(C)(=O)=O)cc2)no1
 : -1.3	x
> CC(=O)N1CCC(N(C(=O)NC2CCCC2)C(C)C)CC1
 : x	2.0
> O=C(CC1(O)C(=O)Nc2ccc(Br)cc21)c1ccc2ccccc2c1 (stereo not drawn)
 : -2.5	x
> CC(O)C(=O)Nc1cc(Cl)cc(Cl)c1 (stereo not drawn)
 : x	-13.0
> CCOc1cccc(NC(=O)c2nc(C)oc2C(F)(F)F)c1
 : -4.1	x
> Cc1ccc(OCCNC(=O)c2ccc(NC(=O)CC#N)cc2)cc1
 : x	-18.0
> C=CCn1c(SC)nc2c(c1=O)C1(CCCCC1)Cc1ccccc1-2
 : 1.5	0.0
> CCNc1cccc2c1C(=O)N(C)C2=O
 : 19.9	-51.0
> Cc1ccc(-c2ccc(OCc3c(C)noc3C)c(C)c2)cc1
 : x	-2.0
> c1cncc(-c2nc(NCc3ccco3)c3ccccc3n2)c1
 : -2.2	21.0
> CCOC(=O)c1c(CSc2nnc(CN3CCCCCC3=O)n2CC)nc2ccccc2c1C
 : x	-5.0
> NCCCn1cnc2ccccc21
 : x	-13.0
> O=C1CN(C(=O)/C=C/c2ccc(Br)cc2)CCN1
 : x	-10.0
> Cc1ccc2c(Cl)c(C(=O)N3CC(C)OC(C)C3)sc2c1 (stereo not drawn)
 : -0.1	-4.0
> COC(=O)COc1ccc(/C=C2\C(=O)NC(=S)N(c3ccc(F)cc3)C2=O)cc1OC
 : 8.1	x
> CCOC(=O)N1CCN(Cc2ccc(O)c(OC)c2)CC1
 : 0.6	6.0
> Cn1c(=O)c2cc(S(=O)(=O)NC(C(=O)NC3CCCCCC3)c3ccccc3)ccc2n(C)c1=O (stereo not drawn)
 : x	-9.0
> CSc1nc(N)nc(SCC(=O)Nc2ccccc2)c1C#N
 : -0.8	6.0
> Cc1sc2ncnc(NCCc3ccc4c(c3)OCCO4)c2c1C
 : x	-10.0
> O=C(O)CN1CC(=O)Nc2ccccc21
 : 6.7	0.0
> O=C(O)[C@@H]1CCCN1Cc1ccccc1
 : -1.5	15.0
> CC(C)(C)C(=O)/C=C/Nc1ccc(C(=O)O)cc1
 : -1.8	6.0

Taken from above:
CN(C)c1nc(SCCOC(=O)COc2ccc(Cl)cc2Cl)nc(N(C)C)n1 in S aureus helic has -3.0
O=C1CN(C(=O)/C=C/c2ccc(Br)cc2)CCN1 in S aureus helic has -10.0

An excerpt of these results, with tabs.
molecule	MgrA DNA FP	S aureus helic
CCc1ccccc1NC(=O)c1ccc2snnc2c1	-0.6	5.0
COc1ccc(-n2nc3c(c2NC(=O)/C=C\c2ccc4c(c2)OCO4)CS(=O)(=O)C3)cc1	4.2	15.0
O=C1CSC(c2cccnc2)N1c1ccc(C(F)(F)F)cc1 (stereo not drawn)	-1.3	x
c1ccn(-c2ccc(-c3ccc(-n4cccc4)cc3)cc2)c1	1.6	-4.0
CC(C)C(C(=O)OCC(=O)c1ccc(Br)cc1)N1C(=O)C2C3C=CC(C3)C2C1=O (stereo not drawn)	-2.3	x

Further structures follow.
Every second line gives: MgrA DNA FP	S aureus helic
> CSc1nc(N)nc(-c2csc(C)n2)n1
 : -2.1	x
> O=C(/C=C/c1cc(Cl)c2c(c1)OCCCO2)Nc1ccc(-n2cnnn2)cc1
 : x	-8.0
> O=C(CSc1nc2sc3c(c2c(=O)[nH]1)CCCC3)NCc1ccccn1
 : 2.8	x
> COc1ccc2oc(CS(=O)c3ccccc3)c(C(=O)O)c2c1 (stereo not drawn)
 : -0.2	5.0

An excerpt; count on the stated rates, not on these rows.
